Mtb hypoxia inh: Mtb hypoxia fluorescent reporter inhibition; M. tuberculosis hypoxia-regulated fluorescent reporter, fluorescence; fluorescence inhibition, % (no concentration beside the values); actives 0.1% (n = 300,000); AID 1159583;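 active means 35 to 45% if threefold the growth effect, above 45% if 1.5-fold the growth effect; inactive means the rest, general growth blockers included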;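 further: wells of about 50 µL received 100 nL stock; 0% = vehicle wells and 100% = reference inhibitor wells; whole bacteria with a GFP reporter of the hypoxia response; strong numbers were not always called active; many hits fall short of the cut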
Sa RN4220 lethal: kills Staphylococcus aureus RN4220. S. aureus RN4220 growth, OD600, 16 h. inhibition, % (test concentration not listed). actives 0.33% (n = 330,000). AID 1259311;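 active means z-score of -3 or lower and OD600 up to 0.18 on both plates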;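 further: plate controls were untreated cells for no effect and reference antibiotic for full effect; stock transfer was 100 nL into about 80 µL; one replicate is shown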
BJeLR viability: BJeLR cell viability loss | actives 0.17% (n = 300,000) | AID 1554 | BJeLR (HRASV12) viability, CellTiter-Glo ATP luminescence, 48 h; reference of the scale not given here | inhibition, % (test concentration not listed);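 active means replicate mean above 50%; inconclusive means above 50% but judged a plate artefact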;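 further: 50 nL library stock added to about 25 µL; numbers are from one replicate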
Bead autofluor: flagged as autofluorescent in microsphere protease counterscreen | compound autofluorescence counterscreen, microsphere flow cytometry; stronger effect = higher value | fluorescence intensity (concentration not given with the values) | actives 3.1% (n = 360,000) | AID 624483;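 active means at least 3 SD above the mean of all compounds, about 16000 in these data; inconclusive means too few beads counted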;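 further: 100 nL of 1 mM stock went into each well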
Sa ugtP lethal: growth inhibition of S. aureus ugtP deletion strain; AID 1259309; actives 0.54% (n = 330,000); growth inhibition, % (no concentration beside the values); S. aureus RN4220 ugtP deletion, OD600 growth, 16 h; some inactives read as strong as hits;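 active means z-score under -3 and OD600 up to 0.15 on both plates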;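 further: plate controls were untreated wells for no effect and antibiotic for full effect; wells of about 80 µL received 100 nL stock; the first replicate is given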
PrP 5UTR inh: inhibition of PrP 5' UTR reporter expression; cell-based PrP 5' UTR mRNA reporter, plate reader; inhibition, % (concentration not given with the values); actives 0.35% (n = 340,000);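 active means every replicate at 50% or more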;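 further: 0 = median of the neutral control wells; tested in H4 reporter cells; numbers are from one replicate; inactives centre near -14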
Mtb hypoxia inh growth: further read-out of Mtb hypoxia inh, marked with its call; growth inhibition, %; measured here: M. tuberculosis growth (absorbance);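 0% = vehicle and 100% = reference antibiotic; read after six days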
Active calls of the source: *; u = inconclusive; x = no result given; & = joins results of further samples.

smiles | Mtb hypoxia inh | Mtb hypoxia inh growth | Sa RN4220 lethal | BJeLR viability | Bead autofluor | Sa ugtP lethal | PrP 5UTR inh
COc1ccc(NS(=O)(=O)Cc2ccccc2)cc1OC | 3 | 6 | 1.2 | 0 | 21419* | 4 | -42
Cc1ccc(C(=O)O/N=C/c2c(C(F)(F)F)nn(C)c2Sc2ccc(Cl)cc2)cc1 | x | x | x | -7 | 2769 | x | -16
CC(C)(C)OC(=O)N/N=C\c1ccc([N+](=O)[O-])s1 | x | x | x | -4 | 4632 | x | -33
COc1cc(OC)c([N+](=O)[O-])cc1/C=N/NC(=O)c1ccncc1 | x | x | x | 4 | 4238 | x | 9
O=C(NCc1ccccn1)c1nc(-c2cccs2)no1 | 6 | -1 | 2.0 | -1 | 2198 | 1 | -7
CCCCCc1nnc(NC(=O)C(=O)OCC)s1 | 9 | 10 | 3.2 | -1 | 10237 | 7 | -11
Cc1nc2ccccn2c1C(=O)c1ccccc1 | 8 | 9 | -4.4 | -9 | 3417 | -5 | -5
CC(=NNC(=O)c1nnn(-c2nonc2N)c1CN(C)c1ccccc1)c1cccc(O)c1 | 2 | 6 | 0.9 | x | x | -1 | x
COc1cccc(C(=O)NC2CC3CCC(C2)N3Cc2ccccc2)c1 (stereo unspecified) | 10 | 2 | 4.2 | 7 | 4655 | 2 | -12
COc1cc(CN2CCN(Cc3ccc(C)cc3)C(CCO)C2)ccc1O (stereo unspecified) | 3 | 12 | -1.6 | 1 | 4884 | 1 | -22
COc1ccccc1N1CCN(S(=O)(=O)c2ccc(Br)s2)CC1 | -3 | 11 | -2.3 | 7 | 22653* | -2 | -9
CCOC(=O)c1ccc(NC(=O)CSc2nnc(CNC(=O)c3c(F)cccc3Cl)o2)cc1 | x | x | -2.0 | 2 | 4495 | 0 | -3
COc1ccc(Cl)cc1NC(=O)CCN1CCN(Cc2ccccc2)CC1 | 4 | 9 | 2.7 | -5 | 3612 | 9 | -22
Cc1ccc(C(=O)NN=Cc2cccs2)cn1 | 1 | 6 | 4.6 | x | x | 0 | x
Cc1cccc(C(C)C)c1NC(=O)CSc1ncnc2[nH]ncc12 | 5 | 6 | -0.6 | x | 3840 | -1 | -46
O=C1CN(S(=O)(=O)c2ccccc2C(F)(F)F)CCN1 | -6 | 10 | 4.2 | -6 | 4498 | 3 | -9
COc1ccc(N)c2c1OCCC2=O | -4 | -5 | -4.7 | 5 | 2543 | 3 | -13
COc1c(Cl)cc(Cl)cc1C(=O)Nc1ccc(CN2CCOCC2)cc1 | 7 | 3 | 0.6 | 5 | 3944 | 13 | -20
Cc1ccc(S(=O)(=O)N(C)c2ccc(OC(=O)CN3C(=O)NC(C)(c4ccccc4)C3=O)cc2)cc1C (stereo unspecified) | -4 | 9 | 1.4 | x | 3753 | -6 | 9
Cc1ccc(-n2cc3ccc([N+](=O)[O-])cc3n2)cc1 | 2 | 1 | 11 | -4 | 4221 | -3 | -40
O=[N+]([O-])c1ccc(-c2csc(NN=Cc3cccnc3)n2)cc1 | 3 | 1 | 7.2 | x | x | 22 | x
N#CCCn1c(SCC(=O)NCC2CCCO2)nc2ccccc21 (stereo unspecified) | x | x | 1.8 | 3 | 3536 | 5 | -17
O=C(Nc1ccc(C(=O)N2CCC(N3CCOCC3)CC2)cc1)c1ccc(Br)o1 | 12 | 4 | 3.5 | x | 3485 | 5 | -12
Cc1cc(C)c(C)c(/C=C(/C#N)C(N)=S)c1C | 6 | 8 | 4.1 | 7 | 11386 | 2 | -28
O=C(CNS(=O)(=O)c1ccccc1)Nc1ccccc1Br | 8 | 0 | -0.5 | 3 | 6808 | 7 | -9
CC(=O)Nc1ccc(NC(=O)[C@H](C)NC(=O)c2ccco2)cc1 | 9 | -14 | -0.1 | -3 | 4132 | 4 | -18
Clc1ccc(-c2noc(CN3CCOCC3)n2)cc1 | 18 | 22 | 1.6 | 9 | 3726 | 7 | -45
Cc1ccc(S(=O)(=O)N2CCC[C@H]2C(=O)OCC(=O)N2CCc3ccccc32)cc1 | -2 | 7 | 2.3 | x | 5562 | 4 | 12
COc1ccccc1N1C(=O)CC(Nc2ccc(N3CCOCC3)cc2)C1=O (stereo unspecified) | x | x | 3.6 | -2 | 2898 | 1 | -12
CCOC(=O)C1=CCC2c3c(c4ccccc4n3C)C(=O)C1N2Cc1ccccc1 (stereo unspecified) | 10 | 10 | 3.6 | x | x | 5 | x
CNS(=O)(=O)c1cc(NC(=O)c2cccc3cccnc23)ccc1C | 2 | 12 | 4.7 | -5 | 4458 | 1 | -33
CCn1c(COc2ccccc2C)nnc1SCC(=O)NC1CCCC1 | 13 | 6 | 4.7 | 3 | 15714 | 8 | -6
Fc1ccc(C(c2nnnn2CCc2ccccc2)N2CCCc3ccccc32)cc1 (stereo unspecified) | x | x | 5.3 | -3 | 5148 | -10 | -7
CCc1ccc(C(=O)/C=C/Nc2ccc(S(=O)(=O)Nc3cnc4ccccc4n3)cc2)cc1 | 9&4 | 3&1 | 13&15 | 3 | 3567&3660 | 0&-1 | -43&-27
O=C(c1cccc(F)c1)N1CCC(N2CCOCC2)CC1 | x | x | 1.4 | 4 | 2048 | 8 | 3
Cc1ccc(-n2c(N)c(C(=O)N3CCOCC3)sc2=S)c(C)c1 | 3 | 6 | 1.1 | -13 | 3194 | 5 | -1
CC(C)CN(C(=O)C1COc2ccccc2O1)c1c(N)n(CC(C)C)c(=O)[nH]c1=O (stereo unspecified) | 12 | 1 | 4.6 | x | 3735 | 5 | -25
COc1ccc(C2N(S(=O)(=O)c3ccc(C)cc3)CCN2S(=O)(=O)c2ccc(C)cc2)cc1 | 8 | 2 | 9.7 | 1 | u | 3 | -10
CCOC(=O)c1cccc(N2CC3CNC(=O)C2(C(=O)OC)N3C)c1 (stereo unspecified) | 2 | 6 | 3.7 | x | 4659 | 1 | -19
COc1ccc2c(-c3ccccc3)cc(SCC(=O)NC3CCS(=O)(=O)C3)nc2c1 (stereo unspecified) | -8 | 9 | -1.5 | -8 | 2233 | -5 | -6
O=S1(=O)CCO[C@H]2Cc3ccccc3[C@H]2N1Cc1ccc(F)cc1 | x | x | x | -6 | 3620 | x | -15
O=C(NN1CCOCC1)c1sc2cccc(F)c2c1Cl | -10 | -6 | 1.2 | 6 | 4432 | 8 | -9
CCN1C(=O)/C(=C/c2ccc3c(c2)CCN3CCCCl)C(=O)NC1=S | -5 | -4 | 0.5 | 2 | 9328 | 0 | -31
CC(C)n1ncc(N2CCOCC2)c(Cl)c1=O | 5 | -3 | 2.1 | -6 | 3167 | -1 | -11
CCCn1c(C(C)Nc2nc(-c3cccc(Br)c3)cs2)nc2ccccc21 (stereo unspecified) | 3 | -1 | -3.3 | -8 | 4183 | 1 | -8
CC(C)NC(=O)/C(C#N)=C/c1ccc2c(c1)OCCO2 | 13 | 2 | 12 | 4 | 2120 | -9 | -37
Cc1ccnc(NC(=O)CNC(=O)c2cccs2)c1 | 5 | -1 | 1.8 | -1 | x | 4 | -23
Cc1cc2c(cc(C(=O)OCC(=O)NCc3ccco3)n2C)s1 | 6 | 7 | 6.8 | 5 | 9251 | 1 | -17
COc1ccc(C)cc1NC(=O)C(OC(=O)c1cnc(C)cn1)c1ccccc1 (stereo unspecified) | 10 | 1 | 0.5 | -3 | 4736 | 10 | -17
Cc1nc2nc(COc3ccccc3)[nH]n2c(=O)c1C | 1 | 11 | 5.3 | -3 | 4641 | -1 | -5
COc1cc(C(=O)NC(c2ccccc2)c2ccccc2)cc(Cl)c1OC | 11 | 2 | 4.4 | 7 | 10160 | 9 | -6
COc1ccccc1-n1c(SCC(=O)N2CCOCC2)nc2ccccc2c1=O | 16 | 1 | 4.5 | -7 | 4311 | 9 | -19
CCOCCCNC(=O)C1CCN(C(=O)N(C)C)CC1 | -1 | 8 | -1.7 | -10 | 5318 | -4 | -5
Cc1ccc(Sc2ncccc2/C=N/O)cc1 | x | x | x | 6 | 4058 | x | -24
O=C(CCC(=O)N1CCC2(CC1)OCCO2)Nc1nnc(C2CCCCC2)s1 | 0 | 4 | 1.2 | -3 | 3112 | 1 | -25
CCOC(=O)C1=C(O)/C(=C\c2ccc(O)c(OCC)c2)N=C1C | 4 | -2 | 0.2 | -5 | 4651 | 2 | -11
Cc1[nH]n(-c2cccc3ccccc23)c(=O)c1C=Nc1ccc2[nH]c(=O)[nH]c2c1 | x | x | 7.7 | 3 | 2721 | -6 | -2
Cc1nnc(SCC(=O)NC2CCCCC2C)s1 (stereo unspecified) | 3 | 3 | 4.3 | 2 | 2727 | -3 | -26
COc1ccc(CC(=O)Oc2ccc(C)cc2C)cc1 | -5 | 3 | 9.7 | -6 | 3194 | 17 | -27
Clc1ccc(COn2c(-c3ccccc3)nc3ccccc32)cc1 | 24 | 26 | 15 | -2 | 15989 | -9 | -13

A section taken from the entries so far:
smiles | Mtb hypoxia inh | Mtb hypoxia inh growth | Sa RN4220 lethal | BJeLR viability | Bead autofluor | Sa ugtP lethal | PrP 5UTR inh
Cc1nnc(SCC(=O)NC2CCCCC2C)s1 (stereo unspecified) | 3 | 3 | 4.3 | 2 | 2727 | -3 | -26
COc1ccc(CC(=O)Oc2ccc(C)cc2C)cc1 | -5 | 3 | 9.7 | -6 | 3194 | 17 | -27

(listing goes on)
smiles | Mtb hypoxia inh | Mtb hypoxia inh growth | Sa RN4220 lethal | BJeLR viability | Bead autofluor | Sa ugtP lethal | PrP 5UTR inh
Cc1[nH][nH]c(=O)c1N=Nc1ccc(S(N)(=O)=O)cc1 | 0 | -4 | 11 | 13 | x | 5 | x
Cc1ccc(NC(=O)NCc2cccnc2)cc1 | 2 | 0 | 0.1 | 0 | 6340 | -2 | -9
C[C@]12CCC3C(CC[C@H]4CC(O)CC[C@]34C)C1CC/C2=N/NC(=O)c1ccncc1 (stereo partly specified) | x | x | x | 5 | 2808 | x | 15
Cc1ccc2nc(C)c(Cl)c(=O)n2c1 | 1 | 4 | 4.8 | 3 | 3727 | -5 | -6
CC(C)CNC(=O)c1c(N)n(Cc2ccc3c(c2)OCO3)c2nc3ccccc3nc12 | 2 | 4 | 0.3 | -8 | 3806 | -10 | -23
Cc1cc(OCC(=O)NCCc2ccc(Cl)cc2)c2c(C)cc(=O)oc2c1 | 4 | 5 | 0.1 | -1 | 4669 | -1 | -11
COc1ccc(N(CC(=O)NCc2ccc(C)cc2)S(=O)(=O)c2c(C)[nH]c(=O)[nH]c2=O)cc1 | -10 | -6 | 5.1 | -2 | 6428 | 8 | 5
COc1ccccc1/C=C/C=N/N1CCN(c2ccccn2)CC1 | x | x | x | -4 | 3066 | x | -14
O=C(NCc1ccco1)c1cc(-c2cccnc2)nc2ccccc12 | 14 | 11 | -7.1 | 5 | 11310 | -3 | -29
CCCCOC(=O)Nc1nc2ccc(OC)cc2s1 | -11 | 1 | -0.1 | -3 | 10017 | -6 | -74
Cc1cc(C)c2oc(C(=O)N(Cc3ccc(F)cc3)C3CCS(=O)(=O)C3)cc(=O)c2c1 (stereo unspecified) | 7 | 3 | 2.3 | 0 | 6287 | 2 | -4
CSc1ccc(C=Nn2nnnc2N)cc1 | 7 | 14 | 2.9 | x | x | -2 | x
CCCc1nn(C)c(C(=O)Nc2ccc(C(C)(C)C)cc2)c1Cl | -5 | 3 | -9.0 | 1 | 1953 | -22 | -18
CN1CCN(C(=S)C(=O)Nc2ccc(Br)cc2)CC1 | 17 | 13 | -0.6 | 0 | 3392 | 6 | -2
COc1ccc(C(=O)Cn2cnc3ccccc3c2=O)cc1 | x | x | x | -4 | 5094 | x | -67
Cc1c(C(N)=O)sc2ncn(CC(=O)OC(C)C)c(=O)c12 | x | x | -0.7 | 3 | 4141 | 4 | -17
O=C(NCCCN1CCCC1=O)c1cc(S(=O)(=O)N2CCOCC2)c(Cl)cc1Cl | 7 | 3 | -0.3 | x | u | 3 | -30
CC(=O)Nc1ccc2c(c1)nc(CCN1CCN(c3ccccn3)CC1)n2C | 4 | 5 | 0.3 | 7 | 3470 | 0 | -20
COc1ccc2nc(NC(=O)Nc3ccccc3OC)sc2c1 | -7 | 3 | -2.9 | 2 | 5629 | -6 | -207
